Source: PubChem (National Center for Advancing Translational Sciences (NCATS))
D2 agonist: activates the human D2 dopamine receptor | activation, % (no concentration beside the values) | 360,000 tested, 0.084% active | DiscoveRx PathHunter D2 beta-arrestin, luminescence, 90 min; 100% = 57 uM dopamine signal | P14416; in the data active = activation above about 40%; inconclusive = about 15% to 40%; inactive = below about 15%; further: compound concentration not given in the record; the text of the record calls up to 30% inactive
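Agonist mode: compounds alone added to overnight-plated D2 PathHunter cells for 90 min at 37 C, with 57 uM final dopamine (EC100) defining full response. Beta-arrestin recruitment detected by chemiluminescent reagent, read after 1 h at ambient temperature.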
TRPV1 PAM: potentiators of human vanilloid receptor 1 (TRPV1) | TRPV1-expressing cells, Fluo-8 calcium influx, capsaicin EC20 potentiation; host cell line not named in the record; control for the full effect not named in the record | potentiation, % at 8.33 µM | 320,000 tested, 0.02% active | AID 540277; active means potentiation above 80%; inconclusive means 30% to 80%; inactive means below 30%; further: 0% is about no effect
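Fluo-8 calcium influx in TRPV1-expressing cells, kinetic read (ex 480/em 520 nm). Compound added and read 3 min for agonist activity, followed by capsaicin at EC20 final and 2 min further read for enhancement.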
CtBP-E1A inh: CtBP/E1A binding inhibition. activity change, % (concentration not given with the values). 340,000 tested, 0.49% active. AlphaScreen GST-E1A/His-CtBP binding, 1536-well; stronger effect = lower value; control for the full effect not named in the record; in the data active means activity change below about -65%; inconclusive means about -30% to -65%; inactive means above about -30%; further: on the % scale 0 is the no-effect control and ±100 the full control effect
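Protein mix (5X: 125 nM each GST-E1A, His-CtBP) was incubated with pinned compound 2 h at 37 deg C in dark, in 50 mM Tris pH 8.0 buffer with 300 mM NaCl. Glutathione donor and nickel acceptor beads followed; AlphaScreen signal read after 1 h.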
Six1-Eya2 inh: inhibitors of human Six1/Eya2 interaction | 360,000 tested, 0.56% active | AID 651725 | AlphaScreen GST-Six1/His-Eya2 binding, biochemical; stronger effect = lower value; control for the full effect not named in the record | activity change, % (concentration not given with the values) | Q15475+O00167; in the data active = activity change below about -65%; inconclusive = about -30% to -65%; inactive = above about -30%; further: on the % scale 0 is the no-effect control and ±100 the full control effect
Target sequence (O00167 whole entry, looked up): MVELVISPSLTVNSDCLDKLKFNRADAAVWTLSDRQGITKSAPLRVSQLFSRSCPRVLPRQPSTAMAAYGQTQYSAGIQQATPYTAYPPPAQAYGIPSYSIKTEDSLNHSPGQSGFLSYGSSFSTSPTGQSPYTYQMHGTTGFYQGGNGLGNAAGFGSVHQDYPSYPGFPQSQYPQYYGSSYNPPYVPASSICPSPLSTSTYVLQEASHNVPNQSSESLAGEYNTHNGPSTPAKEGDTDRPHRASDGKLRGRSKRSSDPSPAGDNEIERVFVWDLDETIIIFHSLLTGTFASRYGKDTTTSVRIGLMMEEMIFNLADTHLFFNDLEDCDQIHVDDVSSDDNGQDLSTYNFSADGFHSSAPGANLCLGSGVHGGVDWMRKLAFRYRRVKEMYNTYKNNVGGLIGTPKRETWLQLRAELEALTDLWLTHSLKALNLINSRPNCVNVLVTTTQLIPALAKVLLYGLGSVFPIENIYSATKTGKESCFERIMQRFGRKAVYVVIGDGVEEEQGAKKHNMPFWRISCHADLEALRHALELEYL
Target sequence (Q15475 whole entry, looked up): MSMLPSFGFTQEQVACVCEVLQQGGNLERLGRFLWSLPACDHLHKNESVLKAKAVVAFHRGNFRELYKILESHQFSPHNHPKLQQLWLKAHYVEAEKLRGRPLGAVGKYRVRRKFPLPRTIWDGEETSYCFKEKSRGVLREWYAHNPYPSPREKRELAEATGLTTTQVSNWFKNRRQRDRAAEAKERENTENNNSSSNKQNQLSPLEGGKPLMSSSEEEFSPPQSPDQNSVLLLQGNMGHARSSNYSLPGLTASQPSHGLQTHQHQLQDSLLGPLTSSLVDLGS
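Compounds are tested against tagged Six1 and Eya2 proteins bridged by glutathione donor and nickel acceptor beads; after a one-hour incubation at 37 °C without light, AlphaScreen emission is recorded.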
PINK1 expr mod: modulators of PINK1 expression; 410,000 tested, 0.2% active; PINK1 immunofluorescence, high-content cytometry, 24 h; AID 624263; Potency, µM (highest dose often 76.6 µM), without a hit: at the top dose activation (PINK1 increase), usual class: activators; active = well fitted activation curve with a large enough effect; inconclusive = small, poorly fitted or top-dose-only effect; inactive = flat fitted curve, though single readings scatter; cell line not stated here;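 further: potency means the concentration at half of the fitted maximal effect; % of control where 0% means no effect; nearly all actives have a fitted effect of over 65% in size; a mitochondrial uncoupler was the plate control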
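Measures PINK1 amount and localization on or inside mitochondria by immunofluorescence. Stable cells get compounds at 5 concentrations for 24 hours before fixation and staining; CCCP controls included.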
D2 PAM: positive allosteric modulators of human D2 dopamine receptor; AID 624464; potentiation, % (no concentration beside the values); DiscoveRx D2 beta-arrestin cells, luminescence, 90 min; 100% = 57 uM dopamine signal; 360,000 tested, 0.23% active; active = potentiation of 50% or more; inconclusive = 30% to 50%; inactive = 30% or less;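 further: compound concentration not given in the record; tested on top of an EC20 dose of dopamine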
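PathHunter beta-arrestin assay in DiscoveRx D2 cells. Compounds were added with an EC20 of dopamine (50 nM final) for 90 min at 37 deg C. Luminescence was read 1 h after detection reagent, with 57 uM dopamine as the EC100 control.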
Sfp inh: blocks B. subtilis Sfp PPTase activity; AID 1490; Biochemical Sfp PPTase activity, qHTS; Potency, µM, inactives show max response, negative = inhibition, most hits filed as inhibitors; Q9F4F7; 310,000 tested, 3.5% active; active means well fitted inhibition curve with a large enough effect; inconclusive means small, poorly fitted or top-dose-only effect, or another doubt; inactive means no such curve, though single readings can be large or run the other way;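 further: the enzyme is Sfp with the accession as filed and its product quenches rhodamine fluorescence; potency means the concentration at half of the fitted maximal effect; 0% = enzyme reaction without inhibitor and -100% = no enzyme wells; top concentration of the series not given in the record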
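Buffer: 50 mM Hepes-Na pH 7.6, 10 mM MgCl2, 0.01% Nonidet P-40, 0.01% BSA. Enzyme 15 nM, pre-exposed to compound 15 min; substrates then added and fluorescence change tracked over 30 min.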
The depositor's hits bear a star; ? = inconclusive; · = not tested or not shown; & = joins results of further samples; [ ] = another dose, or the depositor's remark.

no.	structure	D2 agonist	TRPV1 PAM	CtBP-E1A inh	Six1-Eya2 inh	PINK1 expr mod	D2 PAM	Sfp inh
1	O=C(Nc1cccc(C(F)(F)F)c1)C1=CC=CN2CCS(=O)(=O)N=C12	-3.1	-6	·	0	2.7%	-5	·
2	COCCNC(=O)CSc1nc2cc(OC)c(OC)cc2c(=O)n1CCc1ccc(S(N)(=O)=O)cc1	1.3	4	7	6	0.3%	-2	17%
3	COC(=O)C1=C(C(=O)c2ccccc2)C(c2cccs2)n2nnnc2N1 (stereo not drawn)	-5.5	3	0	0	-0.9%	-25	15%
4	CSc1cc(CS(=O)(=O)c2ccccc2)nc(-c2ccccc2)n1	-5.3	-19	4	0	0.0%	-12	2%
5	COC(=O)Cc1c(C)c2ccc(O)c(CNCc3ccc(OC)c(OC)c3)c2oc1=O	-2.3	-35	-14	-1	1.7%	3	-25%
6	COc1ccc(C(=O)N/C(=C\c2cn(C)c3ccccc23)C(=O)NCCCn2ccnc2)cc1OC	-0.3	?	-11	-9	1.6%	-9	7%
7	Cc1cc(-c2ccccc2)nc(N(C)C)c1S(C)(=O)=O	-2.7	-26	10	16	-0.3%	-15	-8%
8	Cc1cccc(C)c1NCc1nnc(SCC(=O)Nc2nc(-c3ccccc3)cs2)n1-c1ccccc1	-0.9	-16	-4	-12	11%	3	17%
9	CCN(CC)CCCN=C(N)N	-2.1	4	1	1	3.2%	-6	9%
10	O=C(Nc1ccc2c(c1)OCCO2)c1ccc(Cl)c(S(=O)(=O)N2CCOCC2)c1	0.7	-6	-20	-22	-2.3%[38.3 µM]	-4	12%
11	CN(C)c1ccc(NC(=O)CSc2nc3ccccc3c(=O)n2CC2CCCO2)cc1 (stereo not drawn)	-4.5	5	0	0	9.1%	-5	7%
12	COc1ccc(C)cc1S(=O)(=O)n1cnc2ccccc21	4.4	-20	0	1	8.1%	2	12%
13	O=C(O)c1ccccc1Sc1ncnc2sccc12	-5.0	2	-1	-6	1.6%	-4	11%
14	CS(=O)(=O)N(Cc1ccc(C(=O)Nc2ccccc2Sc2ccccc2)cc1)c1ccccc1	0.2	1	0	-1	-1.2%	-6	7%
15	Cc1nnc(NCCO)c2ccccc12	-0.9	-15	38	16	3.4%[38.3 µM]	1	13%
16	O=S(=O)(c1cccc(-c2csc(-c3cccnc3)n2)c1)N1CCCCC1	1.3	0	-6	0	?	2	-6%
17	COc1ccc(-c2nn(C)c(=O)c3ccccc23)cc1CNC(=O)C1CCCCC1	3.1	-4	9	-1	3.4%	0	-8%
18	CC(C)Oc1cc(F)ccc1-c1cc(C(=O)NCCCn2ccnc2)[nH]n1	-4.8	·	-11	-4	1.7%	-17	·
19	Brc1ccc(CSc2nnc3ccccn23)cc1	-0.8	-7	-3	2	0.6%	-12	-4%
20	O=C(CCS(=O)(=O)c1ccccc1)OCC(=O)N1CCN(S(=O)(=O)c2ccc(Cl)cc2)CC1	-1.6	-1	15	4	-0.9%	-1	·
21	CCOc1ccc2cc(S(=O)(=O)N3CCOCC3)ccc2c1	-1.6	4	4	2	0.0%	-2	-11%
22	CCn1nnc(-c2ccccc2NC(=O)c2cc(OC)c(OC)c(OC)c2)n1	1.2	-21	1	0	0.3%[38.3 µM]	-8	-16%
23	COc1ccc(OC)c(C2C(C(C)=O)=C(O)C(=O)N2c2ccc(F)cc2)c1 (stereo not drawn)	-0.4	18	0	-6	-1.0%	17	15%
24	CC(C)(O[C@@H]1O[C@H](CO)[C@@H](O)[C@H](O)[C@H]1O)[C@@H]1CC=C(C(=O)O)CC1	-2.0	-1	0	0	2.1%	5	·
25	O=C(COC(=O)c1cnccn1)c1ccc(Br)cc1	-6.6	24	0	-2	0.1%	-9	17%

New compounds follow
no.	structure	D2 agonist	TRPV1 PAM	CtBP-E1A inh	Six1-Eya2 inh	PINK1 expr mod	D2 PAM	Sfp inh
26	COc1ccc([C@H]2N[C@]3(CCCN(Cc4ccc(Br)cc4)C3=O)[C@H]3C(=O)N(C)C(=O)[C@@H]23)cc1	-7.6	·	-4	0	1.3%	0	·
27	Cc1ccc(S(=O)(=O)NC2=NCN(CC(=O)O)CN2)cc1	1.1	7	0	14	0.1%	-2	13%
28	O=c1nccc(SCc2ccc(Cl)cc2Cl)[nH]1	-2.0	?	·	2	4.6%	-3	16%
29	O=C1Nc2ccccc2/C1=C\c1cccn1-c1ccc(OC(F)(F)F)cc1	-4.9	11	-26	?	?	-9	-23%
30	COc1ccc(OCC(=O)Nc2ccc(NC(=O)c3cccs3)cc2)cc1	-0.4	5	-15	-9	3.5%	-6	1%
31	CC(=O)Nc1ccc(S(=O)(=O)Nc2nccs2)cc1	5.3	2	5	0	-0.1%	-5	3%
32	C[C@@H]1C(=O)O[C@@H]2CC34[C@H]5C[C@@H](C(C)(C)C)C36[C@H](OC(=O)[C@@H]6O)OC4(C(=O)O5)[C@@]12O (stereo partly drawn)	0.6	1	9	23	-0.1%	4	5%
33	Cc1ccc(C(=O)NCCCN2CCOCC2)o1	-2.6	5	5	0	·	-13	24%
34	Cc1nccn1S(=O)(=O)c1cc([N+](=O)[O-])ccc1Cl	-0.2	-6	-20	-3	3.9%	-2	15%
35	CCOC(=O)C1C2C=CC3(CN(Cc4ccco4)C(=O)C13)O2 (stereo not drawn)	-0.4	1	3	2	2.6%	-17	-5%
36	Cc1ccc(C(=O)N/C(=C/c2ccc(N(C)C)cc2)C(=O)NCC2CCCO2)cc1 (stereo not drawn)	1.0	-6	4	-6	-0.4%	-10	7%
37	CCn1c(SCC(=O)N(C)C2CCCCC2)nc2cc(S(N)(=O)=O)ccc21	-4.6	-10	1	-2	-1.0%	-4	·
38	CC(=O)c1c(C)[nH]c(C(=O)Nc2c(C)n(C)n(-c3ccccc3)c2=O)c1C	-1.7	5	0	0	-0.6%	-2	21%
39	COc1ccc(S(=O)(=O)N2CCN(Cc3cc(OC)c(OC)cc3OC)CC2)cc1	0.3	3	·	-7	-1.0%	-6	?
40	CCCc1nc2ccc(Br)cn2c1Cc1ccccc1OC	-6.8	·	0	-7	?	-15	·
41	CCCc1cc(=O)[nH]c(Nc2ccc(Cl)cc2)n1	2.0	4	9	1	?	-17	-9%
42	COc1ccccc1N1CCN(C(=O)/C=C/c2ccco2)CC1	-1.4	-4	-2	-11	-0.3%	-2	-76%
43	CC12CN(NC(=O)c3ccc(Cl)cc3)C3(C#N)CC1CCC23C (stereo not drawn)	-4.5	13	-5	2	1.8%	-46	-2%
44	COc1cc2c(cc1OC)-c1nncn1C(C)(C)C2	-0.4	19	3	3	-1.2%	17	8%
45	Cc1noc(C)c1CSCC(=O)Nc1nnc(CC(C)C)s1	-3.8	-15	3	0	0.5%	-9	-2%
46	COc1ccc(/C(N)=N/OC(=O)CCCc2ccccc2)cc1OC	-0.5	-12	46	34	4.6%	14	-13%
47	Cc1ccc(N(C(=O)Cn2nnc(-c3ccc(F)cc3)n2)C(C(=O)NC(C)(C)C)c2ccncc2)cc1 (stereo not drawn)	1.3	19	0	-12	-2.8%	-7	19%
48	COc1ccc(NC(=O)[C@@H](NC(=O)c2ccccc2F)C(C)C)cc1S(=O)(=O)N1CCOCC1	-3.5	-1	16	1	1.9%	-14	15%
49	CC(=O)C1=C(O)C(=O)N(c2cccc(C(=O)O)c2)C1c1ccccc1F (stereo not drawn)	-0.6	0	3	26	-1.4%	-8	4%
50	Cc1ccc(C(=O)NC2CC3CCCC(C2)N3Cc2ccccc2)cc1 (stereo not drawn)	-0.8	-1	5	0	1.0%	-34	10%

The closing 4 entries of the section before are carried over, then new ones follow.
no.	structure	D2 agonist	TRPV1 PAM	CtBP-E1A inh	Six1-Eya2 inh	PINK1 expr mod	D2 PAM	Sfp inh
47	Cc1ccc(N(C(=O)Cn2nnc(-c3ccc(F)cc3)n2)C(C(=O)NC(C)(C)C)c2ccncc2)cc1 (stereo not drawn)	1.3	19	0	-12	-2.8%	-7	19%
48	COc1ccc(NC(=O)[C@@H](NC(=O)c2ccccc2F)C(C)C)cc1S(=O)(=O)N1CCOCC1	-3.5	-1	16	1	1.9%	-14	15%
49	CC(=O)C1=C(O)C(=O)N(c2cccc(C(=O)O)c2)C1c1ccccc1F (stereo not drawn)	-0.6	0	3	26	-1.4%	-8	4%
50	Cc1ccc(C(=O)NC2CC3CCCC(C2)N3Cc2ccccc2)cc1 (stereo not drawn)	-0.8	-1	5	0	1.0%	-34	10%
51	Cc1cccc(OCC(=O)NCC(=O)n2nc(C)cc2C)c1	-0.1	1	-2	13	-1.1%	1	7%
52	CCC(=O)c1ccc(O)c(OC)c1	-4.1	20	-10	10	0.5%	-4	9%
53	O=C(Cc1cccc2ccccc12)Nc1ccc(N2CCOCC2)cc1	-0.5	1	-6	-7	4.0%	4	-2%
54	C/C(CCC12CC3CC(CC(C3)C1)C2)=N\NC(N)=S	-1.2	0	2	-4	-1.2%[38.3 µM]	-19	?
55	CC(C)(C)c1cc(C(=O)NCc2cccnc2)ccn1	0.5	8	-4	1	0.4%	-2	-7%
56	O=C(Nc1cccc(F)c1)c1ccc(S(=O)(=O)N2CCOCC2)cc1	-3.7	-1	-12	6	-0.2%	-11	21%
57	COc1ccc(NC2CCCN(C(=O)CCc3cccc(Cl)c3)C2)cc1 (stereo not drawn)	-1.2	-10	-20	-19	2.3%	-9	-7%
58	COc1ccccc1NC(=S)N1CCC(NC(=O)NC23CC4CC(CC(C4)C2)C3)CC1	0.1	1	2	3	-0.4%[38.3 µM]	-14	21%
59	Cc1ccc(NC(=O)c2cc(=O)[nH]c3ccccc23)cc1	1.8	17	-16	-16	-1.4%	-7	11%
60	Cc1ccc(C(=O)N/C(=C\c2cccs2)C(=O)NCCc2c[nH]c3ccccc23)cc1C	-0.9	-2	-9	-13	-1.2%	-11	5%
61	O=C(COc1ccc(S(=O)(=O)N2CCCC2)cc1)NCC1CCCO1 (stereo not drawn)	-3.9	2	-10	14	0.0%	-3	7%
62	COc1ccc(C2/C=C\CN3CCC[C@H]3C(=O)N2Cc2ccc(F)cc2)cc1 (stereo partly drawn)	2.7	·	-8	-6	0.6%	·	·
63	CC1CC(C)CN(C(=O)c2ccc3ccccc3c2)C1 (stereo not drawn)	0.4	-31	-26	-2	0.6%	-7	·
64	COc1cccc(/C=C/C(=O)OCC(=O)Nc2nnc(-c3ccccc3)o2)c1OC	-6.4	·	?	?	8.5%	-7	·
65	CC(=O)c1cc2c(cc1N/C(=N/S(=O)(=O)c1ccccc1)c1ccc(Cl)cc1)OCO2	-1.0	7	7	5	2.9%&8.0%	-11	16%
66	CCCCCCSc1cc(C)nc2ncnn12	3.3	-8	4	-2	0.4%	-1	6%
